GLA inh pH 4.5: blocks human alpha-galactosidase A at pH 4.5; activity change, negative = inhibition, % at 105 µM; 230,000 tested, under 10 active; AID 1467; purified enzyme, 4-MU-alpha-Gal fluorescence, pH 4.5; inconclusive = small, poorly fitted or top-dose-only inhibition, or a rising curve; inactive = flat fitted curve, though single readings scatter; no compound was filed as active;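 also: 0% = full activity with enzyme and -100% = basal without enzyme; dose as in the result columns while the protocol names 77 µM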
Target sequence (P06280 whole entry, looked up): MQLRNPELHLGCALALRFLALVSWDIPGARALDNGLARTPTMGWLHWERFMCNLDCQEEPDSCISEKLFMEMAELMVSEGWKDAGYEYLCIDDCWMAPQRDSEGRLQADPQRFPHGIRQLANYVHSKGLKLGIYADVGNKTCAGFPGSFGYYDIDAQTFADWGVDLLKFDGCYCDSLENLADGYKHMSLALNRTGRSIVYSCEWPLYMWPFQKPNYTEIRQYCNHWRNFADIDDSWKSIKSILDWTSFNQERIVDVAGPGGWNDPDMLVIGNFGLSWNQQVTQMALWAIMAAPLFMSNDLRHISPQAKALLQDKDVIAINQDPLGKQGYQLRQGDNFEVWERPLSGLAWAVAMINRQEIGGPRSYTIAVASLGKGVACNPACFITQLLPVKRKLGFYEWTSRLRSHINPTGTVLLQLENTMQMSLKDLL
miR-21 reporter: raises the signal of a miR-21 reporter. HeLa miR-21 FLuc reporter, luciferase, 48 h. Potency, µM (series often up to 38.3 µM), for inactives: top-dose reporter change, positive = more light. 340,000 tested, under 10 active; active = well fitted rising curve with a large enough effect; inconclusive = small, poorly fitted or top-dose-only effect; inactive = no such curve, though single readings can be large or run the other way;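 also: % of control where 0% means no effect; miR-21 action dims this reporter so a rising signal means less miR-21 action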
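HeLa miR-21-FLuc reporter line, endogenous miR-21; 2000 cells/well in DMEM/10% FBS; compound titration up to ~40uM final, 48 h, 37 degree Celsius; luciferase detection reagent, 15 min lysis, CCD luminescence.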
Rango complex inh: prevents formation of the Rango-importin beta complex. Potency, µM (top dose mostly 92.2 µM), without a hit: at the highest dose inhibition of complex formation. Q14974. Rango CFP/YFP FRET sensor + importin beta, 45 min. actives 0.031% (n = 340,000); active = rising FRET ratio curve, often small or poorly fitted; inconclusive = mostly compound fluorescence or quenching in the first reads; inactive = flat curves in all reads;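 also: potency is read from the fitted curve at half-maximal effect; 0% = DMSO wells and 100% = buffer wells lacking importin beta; nearly all actives have a fitted effect of over 15% in size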
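Inhibition scored from the CFP 486 nm/YFP 530 nm FRET ratio 45 min after adding 0.125 microM importin beta to 50 nM Rango biosensor preincubated 5 min with compound (room temperature, PBS with DTT, Tween-20, BSA). No-importin wells as positive control.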
Rango release inh: inhibitors of RanGTP-induced Rango-importin beta complex dissociation; Potency, µM (highest dose often 46.1 µM), without a hit: at the highest dose activity change, negative = inhibition; actives 0.071% (n = 340,000); Biochemical FRET Rango-importin beta, RanGTP-induced dissociation; O95149+P62826; active means falling FRET ratio curve, often poorly fitted, with flat reads before Ran was added; inconclusive means other falling curves, or compound fluorescence or quenching; inactive means flat or rising ratio curve;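 also: potency is read from the fitted curve at half-maximal effect; % of control where 0% means no effect; nearly all actives have a fitted effect of over 45% in size; -100% = wells without RanGTP and RCC1; the record marks most hits as doubtful in a second field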
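Two FRET readings bracket the reaction: one 5 min after compound meets Rango–importin beta, another 45 min after RanGTP-RCC1 (0.6 uM Ran, 0.2 uM RCC1, 2 mM GTP) is added. Only the second defines inhibition.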
Starred values were filed as active, the others as inactive; & = joins results of further samples. Only part of the results is shown, so the mix of outcomes need not match the whole.

How did O=C(c1cnc2ccccc2n1)N1CCN(c2ccc(C(F)(F)F)cn2)CC1 do in these assays?
GLA inh pH 4.5: 2; miR-21 reporter: -10%; Rango complex inh: -1.4%; Rango release inh: -1%

Results for Cc1ccc(O)c(N=Nc2ccccc2)n1 ?
GLA inh pH 4.5: -11&-22; Rango complex inh: 6.1%; Rango release inh: -20%

What do the screens show for `COc1ccc(-n2c(Cc3cccn3C)nnc2SCC(=O)Nc2ccc(C(C)=O)cc2)cc1`?
GLA inh pH 4.5: -15; miR-21 reporter: 4%; Rango complex inh: 3.4%; Rango release inh: -13%

Results for COc1cc(/C=N/Nc2nc3c(c(=O)n(C)c(=O)n3C)n2Cc2ccccc2)ccc1OC(=O)c1ccco1 ?
GLA inh pH 4.5: inconclusive; miR-21 reporter: -3%; Rango complex inh: -5.3%; Rango release inh: 22%

Results for CC(O)CNc1nc2sc3c(c2c(=O)n1Cc1ccco1)CCCCC3 (centres undefined) ?
GLA inh pH 4.5: -6; miR-21 reporter: -57%; Rango complex inh: 9.0%; Rango release inh: -6%

What do the screens show for `Cc1nn(-c2nnc(C)c(=O)[nH]2)c(C)c1SCC(=O)Nc1ccc(C(C)C)cc1`?
GLA inh pH 4.5: 6; miR-21 reporter: -7%; Rango complex inh: 4.7%; Rango release inh: 0%

What do the screens show for `CCc1cccc(CC)c1NC(=O)COC(=O)C1(c2ccc(Cl)cc2)CCCC1`?
GLA inh pH 4.5: -4; miR-21 reporter: -6%; Rango complex inh: inconclusive; Rango release inh: -2%

Results for CC1(OC(=O)C2CCCC2)C(=O)C=C2C=C(c3ccsc3)N(C3CC3)C=C2C1=O (centres undefined) ?
GLA inh pH 4.5: 7&1; miR-21 reporter: -6%; Rango complex inh: inconclusive; Rango release inh: inconclusive

How did O=C(CS(=O)(=O)c1ccc(F)cc1)Nc1nnc(-c2ccccc2Cl)o1 do in these assays?
Rango complex inh: -0.6%; Rango release inh: -14%

Results for CC12CCC(C(=O)n3c1nc1ccccc13)C2(C)C (centres undefined) ?
GLA inh pH 4.5: -1; miR-21 reporter: 0%; Rango complex inh: 0.0%; Rango release inh: 4%

How did CCCOC(=O)c1cc(-c2ccc(/C=C3/C(=O)N(C)C(=O)C(C#N)=C3C)o2)ccc1Cl do in these assays?
Rango complex inh: inconclusive; Rango release inh: -20%

How did COc1ccc(CNc2nc3nc(C)c(Cl)c(C)n3n2)cc1OC do in these assays?
Rango complex inh: 0.0%; Rango release inh: 7%

How did Cc1nc(SCC(=O)NCc2ccco2)[nH]c(=O)c1C do in these assays?
GLA inh pH 4.5: 1; miR-21 reporter: -1%; Rango complex inh: 3.2%; Rango release inh: 1%

Results for CCCCNC(=O)c1ccc(S(=O)(=O)c2ccc(Cl)cc2)c(NC(C)=O)c1 ?
GLA inh pH 4.5: 4; miR-21 reporter: -4%; Rango complex inh: -2.6%; Rango release inh: -25%

Results for CC(C)(C)NC(=O)c1ccc2c(c1)N(CC(=O)NC1CCCC1)C(=O)C(C)(C)O2 ?
miR-21 reporter: 10%; Rango complex inh: 0.9%; Rango release inh: -6%

Results for COc1ccccc1C(C)NC(=O)CCC(=O)N1CCN(S(=O)(=O)c2ccc(Cl)cc2)CC1 (centres undefined) ?
Rango complex inh: -0.5%; Rango release inh: 1%

How did CCOC(=O)C1(Cc2ccccc2)CCN(Cc2cn(CC(=O)OC)c3ccccc23)CC1 do in these assays?
GLA inh pH 4.5: 0; miR-21 reporter: -5%; Rango complex inh: -1.9%; Rango release inh: 0%

What do the screens show for `CCOc1ccc(N(CC(=O)NC2CCCCC2)C(=O)Cn2nnc(-c3ccc(C)o3)n2)cc1`?
miR-21 reporter: -2%; Rango complex inh: -3.8%; Rango release inh: 0%

What do the screens show for `COc1cccc(CC(=O)Nc2sc3c(c2C(N)=O)CCCC3)c1`?
miR-21 reporter: -13%; Rango complex inh: -1.6%; Rango release inh: -5%

How did CC1CC(C)CN(c2cc3c(cc2[N+](=O)[O-])C(=O)N(c2ccccc2)C3=O)C1 (centres undefined) do in these assays?
GLA inh pH 4.5: 3; miR-21 reporter: -2%; Rango complex inh: -2.4%; Rango release inh: 1%

Part of the list above in order of molar mass, high to low.
Results for CC1(OC(=O)C2CCCC2)C(=O)C=C2C=C(c3ccsc3)N(C3CC3)C=C2C1=O (centres undefined) ?
GLA inh pH 4.5: 7&1; miR-21 reporter: -6%; Rango complex inh: inconclusive; Rango release inh: inconclusive

Results for CCCCNC(=O)c1ccc(S(=O)(=O)c2ccc(Cl)cc2)c(NC(C)=O)c1 ?
GLA inh pH 4.5: 4; miR-21 reporter: -4%; Rango complex inh: -2.6%; Rango release inh: -25%

How did CC1CC(C)CN(c2cc3c(cc2[N+](=O)[O-])C(=O)N(c2ccccc2)C3=O)C1 (centres undefined) do in these assays?
GLA inh pH 4.5: 3; miR-21 reporter: -2%; Rango complex inh: -2.4%; Rango release inh: 1%

What do the screens show for `COc1cccc(CC(=O)Nc2sc3c(c2C(N)=O)CCCC3)c1`?
miR-21 reporter: -13%; Rango complex inh: -1.6%; Rango release inh: -5%

Next entries:
How did COc1c(Br)cc([N+](=O)[O-])c(OC)c1C(=O)NC(=O)Nc1cc(Cl)cc(Cl)c1 do in these assays?
GLA inh pH 4.5: 0; miR-21 reporter: -4%; Rango complex inh: -3.0%; Rango release inh: -8%

What do the screens show for `Cc1nc(SCC(=O)Nc2ccc(S(=O)(=O)N3CCOCC3)cc2)c2c(C)c(C)sc2n1`?
Rango complex inh: 4.8%; Rango release inh: inconclusive

How did O=C(Nc1cccc2ccccc12)N1CCCN(c2c(Cl)cncc2Cl)CC1 do in these assays?
GLA inh pH 4.5: -2; miR-21 reporter: 0%; Rango complex inh: -3.9%; Rango release inh: 0%

How did COc1cc(CN2CCNC(=O)C2CC(=O)N2CCCN(C(C)=O)CC2)cc(OC)c1 (centres undefined) do in these assays?
miR-21 reporter: -1%; Rango complex inh: 0.5%; Rango release inh: 12%

How did COC(=O)c1c(C)noc1-c1snnc1C do in these assays?
GLA inh pH 4.5: 2; miR-21 reporter: -1%; Rango complex inh: -3.9%; Rango release inh: 5%

What do the screens show for `Cc1cccc(Cn2c(=O)oc3ccc(C)cc32)c1`?
miR-21 reporter: -9%; Rango complex inh: -0.4%; Rango release inh: -4%

Results for CCCNC(=O)Cn1c(=O)n(C)c2ccccc21 ?
GLA inh pH 4.5: -8; miR-21 reporter: 1%; Rango complex inh: -0.1%; Rango release inh: -9%

Results for CCOc1ccc(NC(=O)c2nsc(Cl)c2Cl)cc1 ?
GLA inh pH 4.5: -5; miR-21 reporter: -38%; Rango complex inh: inconclusive; Rango release inh: -6%

Results for COc1ccccc1CNC(=O)COC(=O)c1cc(S(=O)(=O)N2CCOCC2)ccc1Cl ?
Rango complex inh: -2.5%; Rango release inh: -2%

How did CC(=O)Nc1ccc(S(=O)(=O)N2CCC(NC(=O)C(Cc3cccc(F)c3)NC(C)=O)CC2)cc1 (centres undefined) do in these assays?
miR-21 reporter: 0%; Rango complex inh: -0.2%; Rango release inh: 0%

What do the screens show for `O=C(COC(=O)c1ccc(Br)o1)NC1CCCc2ccccc21` (centres undefined)?
Rango complex inh: -2.0%; Rango release inh: 1%

How did Cc1cc(C)nc(N2CCC(C(=O)NNC(=O)c3ccc(Cl)cc3)CC2)n1 do in these assays?
GLA inh pH 4.5: 5; miR-21 reporter: 1%; Rango complex inh: 0.3%; Rango release inh: 10%

What do the screens show for `Cc1ccc2nc3cc([N+](=O)[O-])cc([N+](=O)[O-])c3cc2c1`?
GLA inh pH 4.5: 2; miR-21 reporter: 10%; Rango complex inh: -1.4%; Rango release inh: -10%

How did CCOC(=O)C1CCN(C(=O)c2cccc(S(=O)(=O)N3CCc4ccccc43)c2)CC1 do in these assays?
Rango complex inh: 3.0%; Rango release inh: 20%

How did Cc1c(CNCCc2ccc(Cl)cc2)c(C(=O)O)c(C)n1-c1ccccc1 do in these assays?
miR-21 reporter: -1%; Rango complex inh: -1.9%; Rango release inh: -5%

Results for O=S(=O)(c1cccc(C(F)(F)F)c1)N1CCN(C(=S)NC2CC2)CC1 ?
GLA inh pH 4.5: -3; miR-21 reporter: 1%; Rango complex inh: 4.1%; Rango release inh: 0%

How did O=C(NC(=S)N1CCCC(C(F)(F)F)C1)c1ccc(F)cc1 (centres undefined) do in these assays?
miR-21 reporter: -8%; Rango complex inh: 0.5%; Rango release inh: 24%

How did CC(=O)Nc1cc(NC(C)=O)ncn1 do in these assays?
GLA inh pH 4.5: -15; miR-21 reporter: 2%; Rango complex inh: -1.5%; Rango release inh: -8%

Results for CCc1ccc(C(=O)NNC(=O)c2ccc3c(=O)n4c(nc3c2)CCC4)cc1 ?
miR-21 reporter: 2%; Rango complex inh: 6.2%; Rango release inh: 6%

Results for COc1ccc(C/C(N)=N/OC(=O)c2ccc(Cl)cc2)cc1 ?
GLA inh pH 4.5: 3; miR-21 reporter: -13%; Rango complex inh: 4.6%; Rango release inh: 0%

Entries listed so far that contain an NH in an aromatic ring, in the order listed:
What do the screens show for `Cc1nn(-c2nnc(C)c(=O)[nH]2)c(C)c1SCC(=O)Nc1ccc(C(C)C)cc1`?
GLA inh pH 4.5: 6; miR-21 reporter: -7%; Rango complex inh: 4.7%; Rango release inh: 0%

How did Cc1nc(SCC(=O)NCc2ccco2)[nH]c(=O)c1C do in these assays?
GLA inh pH 4.5: 1; miR-21 reporter: -1%; Rango complex inh: 3.2%; Rango release inh: 1%

Remaining list, next part:
Results for CCCOc1ccc(C2C(C(=O)c3ccc(C)o3)=C(O)C(=O)N2CCN2CCOCC2)cc1OC (centres undefined) ?
GLA inh pH 4.5: -7; miR-21 reporter: -1%; Rango complex inh: -1.2%; Rango release inh: -21%

How did COc1ccc(C2NC(=O)c3ccccc3O2)cc1 (centres undefined) do in these assays?
miR-21 reporter: -1%; Rango complex inh: 0.1%; Rango release inh: 9%

What do the screens show for `Cn1nc(N2CCN(S(=O)(=O)c3ccccc3)CC2)c(=O)n(C)c1=O`?
Rango complex inh: 1.5%; Rango release inh: -5%

What do the screens show for `O=[N+]([O-])c1ccc(Oc2ccc(/C=N/O)cc2)nc1`?
GLA inh pH 4.5: 3; miR-21 reporter: -15%; Rango complex inh: 5.8%; Rango release inh: 10%

How did c1ccc2nc(N3CCOCC3)c(N3CCCC3)nc2c1 do in these assays?
Rango complex inh: -0.3%; Rango release inh: -7%

What do the screens show for `CCC1CCCCN1C(=S)NC(=O)c1cc(S(=O)(=O)N2CCOCC2)ccc1C` (centres undefined)?
GLA inh pH 4.5: 3; miR-21 reporter: -1%; Rango complex inh: 0.8%; Rango release inh: -23%

Results for O=C(CCCN1C(=O)NC2(CCCC2)C1=O)Nc1ccc(F)cc1 ?
Rango complex inh: -1.1%; Rango release inh: 5%

Results for Cc1cccc(CSc2nc3[nH]ncc3c(=O)[nH]2)c1 ?
GLA inh pH 4.5: 1; miR-21 reporter: -36%; Rango complex inh: 0.4%; Rango release inh: 0%

How did O=C(N/N=C\c1ccc[nH]1)C1COc2ccccc2O1 (centres undefined) do in these assays?
GLA inh pH 4.5: -3; miR-21 reporter: 14%; Rango complex inh: 5.7%; Rango release inh: -1%

How did Cc1sc2nc(CN3CCOCC3)nc(Cl)c2c1C do in these assays?
GLA inh pH 4.5: -2; miR-21 reporter: -4%; Rango complex inh: 0.1%; Rango release inh: -14%

How did CN(C(=O)c1ccco1)c1nc(-c2ccc(F)cc2)cs1 do in these assays?
miR-21 reporter: -56%; Rango complex inh: -1.4%; Rango release inh: -11%

Results for O=C(OCCN1CCOCC1)C(c1ccccc1)c1ccccc1 ?
GLA inh pH 4.5: -7; miR-21 reporter: -1%; Rango complex inh: 5.0%; Rango release inh: 17%

How did CC1(C)CC(=O)c2cc3c(nc2C1)CC(C)(C)CC3=O do in these assays?
GLA inh pH 4.5: -3; miR-21 reporter: -10%; Rango complex inh: 2.2%; Rango release inh: -9%

Results for COc1ccc(CCNC(=O)C2CC3Cn4c(nc5ccccc54)C3N2C)cc1 (centres undefined) ?
GLA inh pH 4.5: 4; miR-21 reporter: 4%; Rango complex inh: -2.8%; Rango release inh: -6%

How did N/C(=N\OC(=O)Cc1ccccc1[N+](=O)[O-])c1cccc(Br)c1 do in these assays?
GLA inh pH 4.5: 7; miR-21 reporter: -14%; Rango complex inh: -0.2%; Rango release inh: 32%

Screens from PubChem.
